# ClpP mod: qHTS Assay for Activators of ClpP; purified B. subtilis ClpP, FRET peptide cleavage, 20 min; Potency, µM (highest dose often 57.5 µM), for the others: top-dose activity change, negative = active; hit rate 1.9% among 340,000; active = well fitted falling curve with a large enough effect; inconclusive = small, poorly fitted or top-dose-only effect; inactive = no such curve, though single readings can be large or run the other way; further: potency means the concentration at half of the fitted maximal effect; the source files actives as falling curves though it sought activators and does not explain the sign; nearly all actives have a fitted effect of over 65% in size; many hits overshoot -100%
# Target sequence (P80244 whole entry, looked up): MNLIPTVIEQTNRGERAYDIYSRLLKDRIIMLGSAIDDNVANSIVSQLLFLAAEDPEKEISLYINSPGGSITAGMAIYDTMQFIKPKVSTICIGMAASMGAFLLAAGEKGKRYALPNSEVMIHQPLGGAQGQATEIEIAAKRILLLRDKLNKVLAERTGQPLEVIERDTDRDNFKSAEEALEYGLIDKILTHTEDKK
#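 Purified B. subtilis ClpP, 10 microg/mL final in Tris/HCl pH8 with KCl, BSA, glycerol and Tween-20, cleaved an Abz/nitrotyrosine-quenched decapeptide. Fluorescence (ex 320, em 430) was read at 0 and 20 min at room temperature. Delta was normalized to 5.8 microM ADEP and DMSO/no-enzyme controls.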
# PINK1 modulator: PINK1 expression modulation. Potency, µM (titrated, usually from 76.6 µM), for inactives: top-dose activation (PINK1 increase), actives largely listed as activators. AID 624263. hit rate 0.2% among 410,000. PINK1 immunofluorescence, high-content cytometry, 24 h; active = well fitted activation curve with a large enough effect; inconclusive = small, poorly fitted or top-dose-only effect; inactive = flat fitted curve, though single readings scatter; cell line not stated here;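 further: potency means the concentration at half of the fitted maximal effect; % of control where 0% means no effect; nearly all actives have a fitted effect of over 65% in size; a mitochondrial uncoupler was the plate control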
#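 PINK1 protein, normally rapidly degraded, was detected by immunofluorescence after 24 hour compound treatment of a stable cell line. Titration data (5 concentrations) came from laser-scanning cytometry, with CCCP-treated wells as controls.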
# TRPV1 PAM: potentiators of human vanilloid receptor 1 (TRPV1) | hit rate 0.02% among 320,000 | AID 540277 | potentiation, % at 8.33 µM | TRPV1-expressing cells, Fluo-8 calcium influx, capsaicin EC20 potentiation; host cell line not named in the record; control for the full effect not named in the record; active means potentiation above 80%; inconclusive means 30% to 80%; inactive means below 30%; further: 0% is about no effect
# Target sequence (Q8NER1 whole entry, looked up): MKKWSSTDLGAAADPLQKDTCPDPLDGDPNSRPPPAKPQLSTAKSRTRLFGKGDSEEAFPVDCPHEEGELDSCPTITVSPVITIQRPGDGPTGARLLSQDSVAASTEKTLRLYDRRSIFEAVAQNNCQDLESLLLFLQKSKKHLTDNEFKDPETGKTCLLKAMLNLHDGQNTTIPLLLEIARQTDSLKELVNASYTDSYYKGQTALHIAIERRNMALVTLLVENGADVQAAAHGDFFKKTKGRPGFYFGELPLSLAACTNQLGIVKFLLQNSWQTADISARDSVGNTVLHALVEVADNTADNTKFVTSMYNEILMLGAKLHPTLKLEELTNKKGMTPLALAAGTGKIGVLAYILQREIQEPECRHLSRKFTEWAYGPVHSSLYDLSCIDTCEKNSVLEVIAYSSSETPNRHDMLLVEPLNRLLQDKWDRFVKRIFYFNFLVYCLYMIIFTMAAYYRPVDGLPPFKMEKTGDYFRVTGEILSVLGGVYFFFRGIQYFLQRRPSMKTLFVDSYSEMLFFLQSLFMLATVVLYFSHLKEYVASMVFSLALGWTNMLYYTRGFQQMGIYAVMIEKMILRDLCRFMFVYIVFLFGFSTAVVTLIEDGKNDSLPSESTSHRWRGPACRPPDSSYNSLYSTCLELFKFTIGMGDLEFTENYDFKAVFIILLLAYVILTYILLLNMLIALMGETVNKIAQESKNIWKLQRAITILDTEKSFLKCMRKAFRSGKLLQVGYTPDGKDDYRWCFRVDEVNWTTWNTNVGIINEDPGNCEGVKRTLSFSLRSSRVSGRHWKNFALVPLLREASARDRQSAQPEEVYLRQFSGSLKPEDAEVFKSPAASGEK
#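 Cells expressing TRPV1 were dye-loaded with Fluo-8 and read kinetically: 10 s baseline, 3 min after compound (agonist portion), then 2 min after EC20 capsaicin (allosteric enhancer portion). Calcium-bound dye fluorescence at 480/520 nm.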
# Menin MLL FP FL: inhibitors of human menin-MLL interaction, wild-type MLL peptide. FP activity change, % at 61.4 µM. Fluorescence polarization, fluorescein-MLL peptide displacement from menin. AID 1766. 290,000 tested, under 10 active; inconclusive = falling polarisation curve, or a change in total fluorescence; inactive = total fluorescence flat and polarisation flat or rising; no compound was filed as active; the % refers to the polarisation; negative = inhibition;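 further: % of control where 0% means no effect; inhibitors lower the polarisation; unlabelled MLL peptide was the positive control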
# TRPML1 ag: human mucolipin-1 channel agonism. Q9GZU1. TRPML1-expressing cells, Ca2+ dye fluorescence, FDSS; host cell line not named in the record; reference of the full effect not given here. activation, % (test concentration not listed). hit rate 0.12% among 410,000. AID 624414; in the data active = activation above about 50%; inconclusive = about 30% to 50%; inactive = below about 30%; further: 0% is about no effect; the text of the record puts the active cut at 80%
#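 Agonist activity was taken from a 110 s kinetic Ca2+ dye read on the FDSS after pinning compounds onto TRPML1-DL cells. The cells were seeded at 1,500/well with Tet inducer, incubated about 16 h, then dye-loaded at room temperature.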
# TRPML1 inh: human mucolipin-1 channel inhibition | Q9GZU1 | TRPML1-inducible cells, Ca2+ dye fluorescence, FDSS; active compounds read low; inhibition of EC80 agonist-evoked calcium signal | activity change, negative = inhibition, % (test concentration not listed) | hit rate 0.02% among 390,000 | AID 624415; in the data active means activity change below about -50%; inconclusive means about -30% to -50%; inactive means above about -30%;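 further: stimulus is agonist 54-4 at its EC80 concentration; on the % scale 0 is the no-effect control and ±100 the full control effect; compound concentration not given in the record; the text of the record puts the active cut at -80%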
#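 Calcium fluorescence in TRPML1-DL cells induced overnight with Tet: a 110 s read after compound pin addition, then a 110 s antagonist read after challenge with 54-4 at 4 uM final (EC80).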
# Sfp PPTase inh: Sfp phosphopantetheinyl transferase inhibition; Potency, µM, without a hit: max response, negative = inhibition, hits mostly inhibitors; Biochemical Sfp PPTase activity, qHTS; AID 1490; hit rate 3.5% among 310,000; active means well fitted inhibition curve with a large enough effect; inconclusive means small, poorly fitted or top-dose-only effect, or another doubt; inactive means no such curve, though single readings can be large or run the other way;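 further: the enzyme is Sfp with the accession as filed and its product quenches rhodamine fluorescence; potency means the concentration at half of the fitted maximal effect; 0% = enzyme reaction without inhibitor and -100% = no enzyme wells; top concentration of the series not given in the record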
#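 After 15 min at room temperature with compound, 15 nM Sfp received 5 uM rhodamine-CoA plus 12.5 uM BHQ-2-ybbR (50 mM Hepes pH 7.6, 10 mM MgCl2). Rate came from the fluorescence difference over 30 min, ex 525/em 598 nm.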
# * = called active by the depositor; ? = inconclusive; · = no result given; [ ] = another dose, or the depositor's remark.
SMILES,ClpP mod,PINK1 modulator,TRPV1 PAM,Menin MLL FP FL,TRPML1 ag,TRPML1 inh,Sfp PPTase inh
Clc1ccc(-n2ncc3c(NCc4ccccn4)ncnc32)cc1,?,25%[38.3 µM],8,-1.2,-0.9,-9,7%
C[C@@H]1COC(=O)[C@H](Cc2ccc(F)cc2)CC/C=C/C[C@@H](CC(=O)N[C@H](CO)Cc2ccccc2)C(=O)N1,-0.1%,2.4%,·,·,0.0,-2,·
CCCSc1nsc(NC(=O)c2cccnc2OCC)n1,-4.3%,0.5%,17,1.2,1.0,5,-7%
Cc1cccc(Nc2ccc([N+](=O)[O-])cc2C(=O)O)c1,-0.5%,0.2%,25,10,0.6,-6,5%
CCOC(=O)C(C)(C)C(=O)C(C)(C)C(O)c1ccccn1 (stereo not given),0.6%,12%[38.3 µM],1,1.8,-0.1,9,-10%
Fc1ccc(N2CCN(c3ncnc4[nH]ncc34)CC2)cc1,0.2%,-4.5%,·,·,1.1,-7,·
Cc1cnc(C(=O)OCC(=O)N(Cc2ccccc2)C(C)(C)C)cn1,-0.1%,-0.8%,·,·,0.1,-4,·
Cc1cccn2c(CN3CCCC(c4ccccc4)C3)c(C(=O)N3CCOCC3)nc12 (stereo not given),·,-0.4%,5,-0.9,-0.2,15,0%
CC1=C(C(=O)Nc2ccccc2)C(c2ccc(N(C)C)cc2)NC(=O)N1 (stereo not given),0.3%,-0.5%,21,0.9,-0.4,11,13%
Cc1ccc(OCc2nnc(SC3CCc4ccccc4C3=O)n2C)cc1 (stereo not given),-3.6%,-2.2%,3,0.5,-0.3,-13,25µM*
CCOC(=O)c1sc(NC(=O)Cc2ccccc2OC)nc1C,-2.7%,-1.1%,?,2.1,·,·,-11%
CC(=O)NC(Cc1ccccc1)C(=O)N1CCN(C(=O)c2ccco2)CC1 (stereo not given),-3.3%,-2.4%[38.3 µM],-8,3.2,0.3,28,11%
CCCCCCn1c(=O)n2n(c1=O)C[C@]1(OC(=O)NCc3ccco3)CN(S(=O)(=O)c3ccc(C)cc3)C[C@]1(O)C2,-0.1%,0.4%,·,·,1.0,-13,·
CCC1(c2ccc(Cl)cc2)NC(=O)N(CC(=O)NCc2ccc(F)cc2)C1=O (stereo not given),·,1.9%,-2,0.3,0.4,-13,14%
COc1ccc(C(=O)N2CCN(c3ncccn3)CC2)cc1S(=O)(=O)N1CCOCC1,-13%,0.0%,-8,·,1.8,-2,·
O=c1[nH][nH]c2c1C(c1cccc(C(F)(F)F)c1)OC(CCc1ccccc1)C2 (stereo not given),1.2%,7.2%,·,·,-0.6,·,·
COc1cc2c(cc1OC)C(COc1cc(C)cc(C)c1)N(C(C)=O)CC2 (stereo not given),-1.6%,1.5%,-8,-7.5,-1.5,40,10%
COCCn1c(=O)c(CCc2ccccc2)nc2cnc(N(C)C)nc21,·,1.6%,·,-9.5,·,·,-2%
O=C1N/C(=C/c2cccs2)C(=O)N1Cc1ccccc1F,·,1.5%,-2,1.9,0.4,-6,17%
CCc1nnc(NC(=O)C(NS(=O)(=O)c2ccccc2)C(C)C)s1 (stereo not given),-0.7%,2.8%,·,·,-0.9,-6,·
COc1ccc(C2CC(=O)C=C(NCc3ccccc3)C2)cc1 (stereo not given),1.3%,9.2%,·,1.8,-0.6,-11,0%
COc1cc(NC(=S)N2CCCCC2C)cc(OC)c1OC (stereo not given),·,3.0%,27,-1.8,-0.5,-18,45µM*
CN(C)c1ccc(/C=N/n2cnn(Cc3ccccc3Cl)c2=S)cc1,·,4.9%,6,-2.4,0.6,3,-23%
COc1cc(/C=C(\C#N)C(=O)c2ccc(O)c(O)c2)cc(I)c1O,-2.5%,0.2%,2,?,-0.8,-1,·
Cc1ccc(-c2cc(C(=O)NCc3ccccn3)no2)cc1,-1.1%,-3.7%[38.3 µM],-8,-1.5,-0.1,0,1%
O=C(CCN1N=C(c2ccccc2)CCC1=O)NCC1COc2ccccc2O1 (stereo not given),1.5%,-2.4%,13,-0.5,2.0,7,7%
CC1=CN(S(=O)(=O)c2ccc(C)cc2)C[C@@H]2c3ccccc3N(S(=O)(=O)c3ccc(C)cc3)[C@H]12,-0.4%,3.1%,·,·,9.9,18,·
CCOc1ccc(C(=O)N2CCc3ccccc32)cc1OCC,-3.5%,-0.7%,4,3.4,-0.2,-12,11%
O=C(NCC1CCCO1)c1cc2c([nH]c3ccccc32)c(-c2ccc(F)cc2)n1 (stereo not given),4.8%,-0.8%,-5,-1.9,·,·,2%
O=C(COc1ccc2ccccc2c1)Nc1ccc(S(=O)(=O)N2CCCCCC2)cc1,-12%,3.4%,1,4.2,0.6,1,-11%

# Some of the entries so far, with bars between the fields:
Structure | ClpP mod | PINK1 modulator | TRPV1 PAM | Menin MLL FP FL | TRPML1 ag | TRPML1 inh | Sfp PPTase inh
COc1cc(NC(=S)N2CCCCC2C)cc(OC)c1OC (stereo not given) | · | 3.0% | 27 | -1.8 | -0.5 | -18 | 45µM*
CN(C)c1ccc(/C=N/n2cnn(Cc3ccccc3Cl)c2=S)cc1 | · | 4.9% | 6 | -2.4 | 0.6 | 3 | -23%
COc1cc(/C=C(\C#N)C(=O)c2ccc(O)c(O)c2)cc(I)c1O | -2.5% | 0.2% | 2 | ? | -0.8 | -1 | ·
Cc1ccc(-c2cc(C(=O)NCc3ccccn3)no2)cc1 | -1.1% | -3.7%[38.3 µM] | -8 | -1.5 | -0.1 | 0 | 1%

# Additional records follow.
SMILES,ClpP mod,PINK1 modulator,TRPV1 PAM,Menin MLL FP FL,TRPML1 ag,TRPML1 inh,Sfp PPTase inh
COc1cc(C(=O)NNC(=O)CN2C(=O)NC(C)(c3ccc(C)cc3)C2=O)cc(OC)c1OC (stereo not given),0.1%,-0.1%,-5,·,-0.1,-10,·
Cc1ccc(C(=O)Nc2cccc(Oc3ccccc3)c2)o1,0.0%,3.9%,-11,2.7,2.9,-17,-6%
O=C1CCC(C(=O)N2CCSCC2)CN1CCc1cccc(F)c1 (stereo not given),0.7%,0.3%,-24,3.7,-0.3,10,13%
Cc1cccc(NC(=O)c2ccc(OC3CSC3)cc2)c1,-2.5%,12%,3,6.4,1.6,8,9%
O=C(c1cnn2c(C(F)(F)F)cc(-c3ccc(F)cc3)nc12)N1CCc2ccccc2C1,-4.8%,3.4%,-13,5.3,1.7,17,1%
CCN1C(Nc2ccccc2)=NC[C@@H]1Cc1ccccc1,0.3%,0.2%,-16,-0.3,0.6,-7,9%
Cc1[nH]c2ccccc2c1/C=N/n1cnnc1,-0.2%,-1.1%,-4,-0.7,-0.6,2,1%
COc1ccc(-c2c(-c3cc(OC)cc(OC)c3)sc3ccc(OC)cc23)cc1,18µM*,0.3%,·,·,1.3,-15,·
COc1cc2c(cc1NC(=O)c1ccco1)CCCC2,1.0%,18%[38.3 µM],-16,-0.1,0.6,-10,-10%
O=C(COC(=O)COc1ccccc1F)NCCc1ccc(F)cc1,0.2%,0.0%,-16,·,-0.9,-3,·
COc1cc(Cl)ccc1OCc1cc(C(=O)NCc2cc(C(C)C)no2)no1,-1.4%,0.0%,-3,·,1.4,21,2%
COc1ccccc1-n1c(=O)[nH]c2c(C(N)=O)nc(CC(C)C)nc21,5.4%,5.9%,0,4.9,-0.4,4,0%
O=C(CN1C(=O)NC2(CCCCC2)C1=O)NCC(=O)Nc1ccc(F)c(F)c1,-7.8%,-5.5%,0,·,0.0,-12,·
CCCCOc1ccc(CSc2nc(C)[nH]c2[N+](=O)[O-])cc1[N+](=O)[O-],·,?,-6,-1.3,-0.1,7,7%
O=C(CC(NC(=O)c1ccccc1)c1ccccc1)Nc1cccc2ccccc12 (stereo not given),0.9%,21%,9,0.6,1.7,-5,-16%
C=CC[N+](C)(C)CC(=O)OCc1ccccc1,1.6%,1.2%,11,-0.4,-0.8,-9,-5%
Cc1ccc(OCC(=O)N(C)CC(=O)N(CC(C)C)c2c(N)n(CC(C)C)c(=O)[nH]c2=O)c(C)c1,0.7%,-0.9%,-5,·,0.7,25,·
COc1ccc(NC(C)=O)cc1S(=O)(=O)N1CCN(Cc2cccs2)CC1,-5.0%,0.8%,3,·,0.4,-14,·
CC(=O)N1c2ccc(C)cc2Sc2c1ccc1ccccc21,·,-0.9%,·,·,1.8,-8,·
O=C1c2ccccc2OCOc2ccccc21,-1.0%,-0.1%[38.3 µM],-18,0.6,0.6,-5,8%
O=[N+]([O-])c1ccc2nc(-c3ccccc3[N+](=O)[O-])[nH]c2c1,·,-0.4%,-19,-3.6,0.0,39,6%
Cc1ccc(NC(=O)Cn2c(=O)n(Cc3ccco3)c(=O)c3oc4ccccc4c32)cc1C,-0.9%,0.2%,·,·,1.0,-24,·
COc1cn(CC(=O)Nc2c(C)cc(C)cc2C)c(CN2CCCCC2)cc1=O,1.0%,-0.7%,·,·,0.9,14,·
COc1ccc(-c2csc3ncnc(N4CCN(S(=O)(=O)c5ccccc5C#N)CC4)c23)cc1,0.2%,-0.5%,-38,·,0.2,-6,3%
CNC(=O)NC(=O)C(C)OC(=O)c1oc2ccccc2c1CSc1ccc(Cl)cc1 (stereo not given),·,0.5%,-4,1.0,1.0,6,-19%
CCN(CC)S(=O)(=O)c1ccc(N2CCCC2)c(NC(=O)c2ccc([N+](=O)[O-])o2)c1,-1.6%,0.0%,·,·,0.2,0,·
Cc1cc(C)n(-c2nc(NCCCN(C)C)c3c4c(sc3n2)COC(C)(C)C4)n1,-2.3%,0.3%,-15,2.1,0.0,15,?
O=C(Oc1c(CN2CCOCC2)cc(Cl)c2cccnc12)c1cccs1,0.6%,0.7%,-12,1.2,-1.5,-5,-3%
Cc1cccc(NC(=O)CS(=O)(=O)c2cn(C)c3ccccc23)c1C,1.7%,-1.4%,-2,1.1,1.0,0,-8%
O=C(OCc1ccccn1)c1ccc(COc2ccc3ccccc3c2)o1,-1.0%,1.6%,9,-0.5,2.0,-4,?
CCCCN(C)c1c(C)nc2ccc(C(=O)NCCCn3ccnc3)cn12,-0.7%,1.0%,·,·,-1.0,·,·
Cn1c(C(O)C(O)c2ccccc2)nc2ccccc21 (stereo not given),-0.2%,-1.0%,1,5.0,-0.2,3,2%
COCCN(C(=O)c1ccc2ccccc2c1)c1c(N)n(Cc2ccccc2)c(=O)[nH]c1=O,·,-0.5%,-5,1.2,0.3,-10,14%
O=S(=O)(c1ccc(C2=CSC3=NCCN23)cc1)N1CCOCC1,-1.1%,0.0%,-17,0.8,0.5,36,56µM*
